TRPML1 inh = human mucolipin-1 channel inhibition. Q9GZU1. TRPML1-inducible cells, Ca2+ dye fluorescence, FDSS; hits give low values; inhibition of EC80 agonist-evoked calcium signal. activity change, negative = inhibition, % (concentration not given with the values). hit rate 0.02% among 390,000. AID 624415; in the data active means activity change below about -50%; inconclusive means about -30% to -50%; inactive means above about -30%;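 note: stimulus is agonist 54-4 at its EC80 concentration; % is set by controls: 0 for no effect and ±100 for the full control effect; compound concentration not given in the record; the text of the record puts the active cut at -80%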
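Calcium fluorescence in TRPML1-DL cells induced overnight with Tet: a 110 s read after compound pin addition, then a 110 s antagonist read after challenge with 54-4 at 4 uM final (EC80).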
D2 agonist = human D2 receptor agonism in beta-arrestin assay | P14416 | activation, % (test concentration not listed) | hit rate 0.084% among 360,000 | DiscoveRx PathHunter D2 beta-arrestin, luminescence, 90 min; 100% = 57 uM dopamine signal | AID 624465; in the data active = activation above about 40%; inconclusive = about 15% to 40%; inactive = below about 15%; note: compound concentration not given in the record; the text of the record calls up to 30% inactive
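DiscoveRx PathHunter D2 beta-arrestin cells (2,100/well) attached overnight, then compound-stimulated 90 min at 37 C in HBSS/10 mM HEPES/0.1% Tween-20 buffer; beta-galactosidase complementation read by luminescence after 1 h at ambient temperature. Dopamine 57 uM final (EC100) as control.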
PINK1 modulator = PINK1 expression modulation; PINK1 immunofluorescence, high-content cytometry, 24 h; Potency, µM (titrated, usually from 76.6 µM), for inactives: at the highest dose activation (PINK1 increase), usual class: activators; hit rate 0.2% among 410,000; AID 624263; active = well fitted activation curve with a large enough effect; inconclusive = small, poorly fitted or top-dose-only effect; inactive = flat fitted curve, though single readings scatter; cell line not stated here;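 note: potency is the fitted concentration of half-maximal effect; % of control where 0% means no effect; nearly all actives have a fitted effect of over 65% in size; a mitochondrial uncoupler was the plate control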
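Fluorescence from anti-PINK1 antibody, together with nuclear and cell stains, was scanned on a laser-scanning cytometer. Before staining, stable-line cells were incubated 24 hours with compounds at 5 concentrations; primary antibody 12 h at 10 degrees C.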
TRPML1 ag = agonists of human TRPML1 channel; Q9GZU1; activation, % (test concentration not listed); hit rate 0.12% among 410,000; TRPML1-expressing cells, Ca2+ dye fluorescence, FDSS; host cell line not named in the record; reference of the full effect not given here; in the data active = activation above about 50%; inconclusive = about 30% to 50%; inactive = below about 30%; note: 0% is about no effect; the text of the record puts the active cut at 80%
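Calcium fluorescence on an FDSS kinetic reader gave the read-out. Tet-induced TRPML1-DL cells were plated overnight, dye-loaded (Ca8 with quencher, 45-90 min, room temperature, dark), then read 110 s after compound addition, and again 110 s after 4uM final 54-4 (EC80).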
Six1-Eya2 blk = blocks human Six1 binding to Eya2 | Q15475+O00167 | AlphaScreen GST-Six1/His-Eya2 binding, biochemical; hits give low values; control for the full effect not named in the record | activity change, % (test concentration not listed) | hit rate 0.56% among 360,000 | AID 651725; in the data active = activity change below about -65%; inconclusive = about -30% to -65%; inactive = above about -30%; note: % is set by controls: 0 for no effect and ±100 for the full control effect; compound concentration not given in the record
Target sequence (O00167 whole entry, looked up): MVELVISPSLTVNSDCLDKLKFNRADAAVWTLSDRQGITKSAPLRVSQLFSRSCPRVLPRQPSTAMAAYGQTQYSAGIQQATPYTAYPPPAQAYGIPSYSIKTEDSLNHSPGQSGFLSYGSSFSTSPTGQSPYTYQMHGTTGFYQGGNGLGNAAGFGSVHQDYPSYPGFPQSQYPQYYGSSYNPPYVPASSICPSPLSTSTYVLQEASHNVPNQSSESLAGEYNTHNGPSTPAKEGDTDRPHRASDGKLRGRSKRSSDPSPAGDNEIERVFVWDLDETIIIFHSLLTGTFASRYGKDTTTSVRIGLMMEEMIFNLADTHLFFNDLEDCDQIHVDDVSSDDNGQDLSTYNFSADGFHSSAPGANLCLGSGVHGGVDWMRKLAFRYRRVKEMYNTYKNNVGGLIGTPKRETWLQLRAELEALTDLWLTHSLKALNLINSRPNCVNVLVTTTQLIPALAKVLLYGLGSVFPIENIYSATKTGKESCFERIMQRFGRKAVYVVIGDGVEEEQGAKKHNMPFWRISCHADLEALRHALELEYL
Target sequence (Q15475 whole entry, looked up): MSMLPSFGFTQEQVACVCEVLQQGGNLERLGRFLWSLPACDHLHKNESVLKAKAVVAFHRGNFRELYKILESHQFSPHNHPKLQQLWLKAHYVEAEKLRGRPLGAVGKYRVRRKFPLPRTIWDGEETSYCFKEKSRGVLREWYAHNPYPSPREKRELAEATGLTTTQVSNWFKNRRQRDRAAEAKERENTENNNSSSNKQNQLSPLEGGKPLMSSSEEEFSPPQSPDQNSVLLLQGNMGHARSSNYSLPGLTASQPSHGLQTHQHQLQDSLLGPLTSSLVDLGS
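Compounds are tested against tagged Six1 and Eya2 proteins bridged by glutathione donor and nickel acceptor beads; after a one-hour incubation at 37 °C without light, AlphaScreen emission is recorded.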
D2 potentiator = positive allosteric modulators of human D2 dopamine receptor | hit rate 0.23% among 360,000 | potentiation, % (concentration not given with the values) | DiscoveRx D2 beta-arrestin cells, luminescence, 90 min; 100% = 57 uM dopamine signal | AID 624464; active = potentiation of 50% or more; inconclusive = 30% to 50%; inactive = 30% or less;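 note: compound concentration not given in the record; tested on top of an EC20 dose of dopamine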
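D2 cells co-treated with compound plus 50 nM dopamine (EC20) for 90 min at 37 deg C to detect potentiation. Beta-arrestin recruitment was read as enzyme-fragment luminescence after 1 h at ambient temperature. Full response was set by 57 uM dopamine.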
The depositor's hits bear a star; ? = inconclusive; . = no result given; & = joins results of further samples; [ ] = dose if it differs, or a comment. These rows are one share of the data. The share of hits here may be higher or lower than overall.

Below each compound: TRPML1 inh	D2 agonist	PINK1 modulator	TRPML1 ag	Six1-Eya2 blk	D2 potentiator
C[C@H](NC(=O)CCC(=O)N1C[C@H]2C[C@H](C1)c1cccc(=O)n1C2)c1ccccc1
    .	1.9	0.8%	.	-2	5
CCC(C(=O)N1CCC2(CC1)OCCO2)c1ccccc1 (stereo not given)
    32	-1.4	3.4%[38.3 µM]	0.5	4	7
CC(=O)N1CN2CN(C(C)=O)CC(C(=O)c3ccc(Br)cc3)(C2)C1
    4	0.7	0.6%	-0.9	11	0
CN1C(=O)C(=Cc2ccccc2OCc2ccc(Cl)cc2)C(=O)N(C)C1=O
    19	-3.4	4.8%	2.5	25	-6
CCN(C(=O)COC(=O)Cc1ccccc1)c1c(N)n(Cc2ccccc2)c(=O)[nH]c1=O
    37	-1.2	-1.2%	-0.2	0	0
CCCc1nc2ccccc2c(=O)n1-c1cccc(OC)c1
    12	-3.5	1.0%	-0.9	1	-5
Cc1ccc(N2Cc3ccccc3C2=N)cc1[N+](=O)[O-]
    5	-1.8	-1.2%	0.2	3	-5
CCOP(=O)(Cc1cc(C(=O)CC)c(C)o1)OCC
    -3	-3.1	0.7%	4.7	-5	-3
COC(=O)C1=C(c2cccc(C#N)c2)C[C@@H]2CC[C@H]1N2C(=O)NC1CC1
    22	1.2	-0.9%	-0.5	0	-2
CCOC(=O)c1c(NS(=O)(=O)c2ccccc2)n(CCCOC)c2nc3ccccc3nc12
    -4	-7.9	-1.2%	-0.6	49	-26

The last 4 entries of the part before are carried over, then new ones follow.
Below each compound: TRPML1 inh	D2 agonist	PINK1 modulator	TRPML1 ag	Six1-Eya2 blk	D2 potentiator
Cc1ccc(N2Cc3ccccc3C2=N)cc1[N+](=O)[O-]
    5	-1.8	-1.2%	0.2	3	-5
CCOP(=O)(Cc1cc(C(=O)CC)c(C)o1)OCC
    -3	-3.1	0.7%	4.7	-5	-3
COC(=O)C1=C(c2cccc(C#N)c2)C[C@@H]2CC[C@H]1N2C(=O)NC1CC1
    22	1.2	-0.9%	-0.5	0	-2
CCOC(=O)c1c(NS(=O)(=O)c2ccccc2)n(CCCOC)c2nc3ccccc3nc12
    -4	-7.9	-1.2%	-0.6	49	-26
COC(=O)C1=C(c2ccccc2)C[C@@H]2CC[C@H]1N2C(=O)NCCS(C)=O (stereo not given in full)
    -13	-1.5	0.3%	-0.7	2	-11
O=C1CN=C(c2ccccc2)c2cc(Br)ccc2N1Cc1cc(=O)n2ccccc2n1
    20	-0.7	1.2%	0.9	-4	6
CN1C(=O)C(=Cc2ccc(Sc3ccccc3)o2)C(=O)N(C)C1=O
    -4	0.3	1.1%	-0.5	4	0
COC(=O)C1=C(c2ccc(F)cc2F)C[C@@H]2CC[C@H]1N2C(=O)NCCO
    5	0.4	-0.2%	-0.6	0	-5
CC[C@H](C)/C=C(C)/C=C/C1=CC2=C(Cl)C(=O)[C@@](C)(OC(C)=O)C(=O)C2=CO1
    -6	-4.4	7.8%	1.9	-22	-7
CC(=NC1CCN(Cc2ccccc2)CC1)c1c(O)n(C)c(=O)n(C)c1=O
    -6	-2.2	-1.2%	-0.3	-4	-8
C=C(C)C1(CCCC)C(=O)NC(=S)NC1=O
    3	1.6	-3.4%	-0.1	-4	-11
CCOC(=O)CSc1ccc(C(=O)N2CCC3(CC2)OCCO3)cc1[N+](=O)[O-]
    .	-0.1	1.8%	.	-2	-3
COc1ccc(-c2nc3ccccc3c(=O)n2-c2nccs2)cc1
    22	-1.0	.	0.4	0	-11
O=[N+]([O-])c1cc(O)c(O)c([N+](=O)[O-])c1
    3	-9.6	0.5%&-0.6%	-0.9	-27	-34

Additional compounds.
Below each compound: TRPML1 inh	D2 agonist	PINK1 modulator	TRPML1 ag	Six1-Eya2 blk	D2 potentiator
CCN(CCCl)Cc1ccccc1Br
    3	-6.4	0.7%	-0.9	4	2
O=c1c2ccccc2nc(CSc2ncnc3nc[nH]c23)n1-c1ccc(Cl)c(Cl)c1
    -8	-1.8	0.3%	-0.8	5	22
COc1ccccc1-n1c(O)c(C=Nc2c(C)n(C)n(-c3ccccc3)c2=O)c(=O)[nH]c1=O
    1	-0.2	7.1%[38.3 µM]	-0.6	2	-11
Cc1ccccc1CN1CCN(Cc2ccccc2)CC1
    -12	-3.2	4.0%	2.1	-9	-7
CC(C)CN1CCN(Cc2cccc3c2OCO3)CC1CCO (stereo not given)
    -11	-6.0	0.8%	-1.3	11	-4
C[C@]12CCC3C(CC[C@H]4C[C@H](O)[C@H](O)C[C@]34C)C1CC[C@@H]2O (stereo not given in full)
    -8	-7.4	-0.1%	0.1	7	-8
Cn1cc(C(=O)OCC(=O)NC2(C#N)CCCCC2)c2ccccc21
    -1	-7.5	0.6%	0.3	1	-15
C#CCN(C)C(C)Cc1ccccc1 (stereo not given)
    ?	-8.6	-0.3%	-0.5	6	-16
CC1=C(C)CC2(CC1)C(=O)NC(=O)NC2=O
    -7	-2.0	-2.2%	-0.3	-2	-1
CCOC(=O)C1C(=O)N(C)C2(C)CC1c1ccccc1O2 (stereo not given)
    9	-2.9	-1.8%	1.4	3	-12

Continuation:
Below each compound: TRPML1 inh	D2 agonist	PINK1 modulator	TRPML1 ag	Six1-Eya2 blk	D2 potentiator
CC12CCC3c4ccc(OC(=O)N(CCCl)CCCl)cc4CCC3C1CCC2O (stereo not given)
    71	5.7	?	0.9	-5	-9
CCCNC(=O)N1[C@H]2CC[C@@H]1C(C(=O)OC)=C(c1ccc(S(C)(=O)=O)cc1)C2
    39	-2.4	1.0%	0.6	3	-4
O=c1c2ccccc2nc(CNc2ccccc2)n1-c1ccccc1
    -16	0.0	2.5%	0.2	8	-8
Cc1cccc(OCC(O)CN2CC2)c1 (stereo not given)
    11	-7.6	1.3%	0.0	-8	-2
CNCCc1nc(N)n[nH]1
    10	-0.9	-1.3%	-0.1	6	-6
CC/C(=N\Nc1ccccc1)c1c(O)[nH]c(=O)[nH]c1=O
    -3	-4.2	2.9%	-0.7	0	.
COc1ccc(-n2nnnc2C(c2ccnc3ccccc23)N2CCC3(CC2)C(=O)NCN3c2ccccc2)cc1 (stereo not given)
    .	13	0.5%	-0.4	-8	8
Nc1ccc(Sc2ccc(N)cc2)cc1
    34	0.9	-0.4%	0.3	-9	-8
COc1cc2c(c(OC)c1O)-c1ccc(OC)c(=O)cc1C(NC(=O)C(F)(F)F)CC2 (stereo not given)
    21	-0.1	8.4%	0.9	9	3
COC(=O)C1=C(c2ccc(C(C)=O)cc2)C[C@@H]2CC[C@H]1N2C(=O)NCCNC(C)=O
    0	-0.6	-0.4%	-0.2	8	-4

More records
Below each compound: TRPML1 inh	D2 agonist	PINK1 modulator	TRPML1 ag	Six1-Eya2 blk	D2 potentiator
Fc1cccc(F)c1-c1nc(-c2ccc(Cl)cc2)no1
    26	0.4	8.0%	2.4	17	-2
CNC1(c2ccccc2Cl)CCCCC1=O (stereo not given)
    1	3.8	0.4%	-0.4	2	-7
CN(C)C(Cc1ccccc1)C(=O)c1ccc(-c2ccccc2)cc1 (stereo not given)
    55	-3.2	1.4%[38.3 µM]	2.2	-13	-26
CCCC1=C(C(=O)OCC)C2(C(=O)Nc3ccccc32)C(C#N)=C(N)O1 (stereo not given)
    -3	7.2	-0.6%[38.3 µM]	-0.3	5	26
CCOC(=O)c1c(C)n(Cc2ccco2)c2ccc(OC)cc12
    2	-0.1	-0.1%	-1.1	-2	-10
CCCCn1c(NS(=O)(=O)c2ccccc2)c(C(=O)OCC)c2nc3ccccc3nc21
    2	-8.5	?	2.8	15	-20
CCOC(=O)c1sc(/N=C/c2c(O)n(-c3cccc(C)c3)c(=O)[nH]c2=O)c(C#N)c1C
    -18	1.7	-0.8%	-0.6	-4	5
O=C(O)c1cccc2nc3ccccc3nc12
    .	-5.3	2.0%	.	0	-7
COc1ccc(CCn2c(O)c(C=NCCCO)c(=O)[nH]c2=O)cc1OC
    5	-1.6	3.2%	0.1	-1	-8
O=C(c1ccco1)c1cn(Cc2ccccc2Cl)c2ccccc12
    -6	-0.2	3.0%[38.3 µM]	2.2	-13	3

Further entries follow:
Below each compound: TRPML1 inh	D2 agonist	PINK1 modulator	TRPML1 ag	Six1-Eya2 blk	D2 potentiator
CC[N+](CC)(CC)CCCCCCCCCC[N+](CC)(CC)CC
    5	-1.0	19%[38.3 µM]	-0.3	7	-8
O=C(Nc1ccccc1OC(=O)N1CCOCC1)N1CCOCC1
    -2	-3.5	0.4%	-0.8	6	4
CC[C@H]1CC2CN3CCc4c([nH]c5cc(OC)ccc45)[C@](C(=O)OC)(C2)[C@H]13
    .	-2.2	?	.	-28	-21
O=C1NCN(c2ccccc2)C12CCN(C(c1cccs1)c1nnnn1Cc1ccccc1)CC2 (stereo not given)
    .	7.8	-1.2%	-0.4	-13	1
CCCCNC(=O)Nc1ccc(C(O)(C(=O)OC)C(F)(F)F)cc1 (stereo not given)
    0	2.1	?	0.9	6	-3
CN(C(=O)Oc1ccc(F)cc1)c1ccccc1
    3	6.7	1.1%	2.2	22	-3
CC1CN2C(=O)C1(c1ccccc1)C(=O)NC2=S (stereo not given)
    -4	-7.3	-0.6%	-1.0	3	8
CN1C(=O)N(C)C(=O)C2(Cc3ccccc3N3CCCC32)C1=O (stereo not given)
    14	-0.5	0.7%	0.3	4	-3
Cc1cccc(Cn2cc(C=O)c3ccccc32)c1
    5	5.0	1.7%	1.6	11	-3
COc1cc2c(cc1OC)C(C(=O)NC(C)C)C1CCCCN1C2=O (stereo not given)
    18	1.8	-0.6%	-0.1	12	0

Taken from above:
`CN(C(=O)Oc1ccc(F)cc1)c1ccccc1` in PINK1 modulator reads 1.1%
`CC1CN2C(=O)C1(c1ccccc1)C(=O)NC2=S` (stereo not given) in Six1-Eya2 blk reads 3
`O=C1NCN(c2ccccc2)C12CCN(C(c1cccs1)c1nnnn1Cc1ccccc1)CC2` (stereo not given) in PINK1 modulator reads -1.2%
`COc1cc2c(cc1OC)C(C(=O)NC(C)C)C1CCCCN1C2=O` (stereo not given) in D2 potentiator reads 0

(list continues)
Below each compound: TRPML1 inh	D2 agonist	PINK1 modulator	TRPML1 ag	Six1-Eya2 blk	D2 potentiator
CC(c1ccc(F)cc1)n1cc(C(=O)NCc2ccc3c(c2)OCO3)nn1 (stereo not given)
    -6	-2.9	-0.8%	1.2	0	1
CNC(=O)Oc1cc2c(cc1C(C)(C)C)CCC2
    2	-0.4	14%	-0.5	-7	-3
CCOP(=O)(OCC)C(NS(=O)(=O)c1ccccc1)C(Cl)(Cl)Cl (stereo not given)
    15	-0.8	-0.9%	0.7	7	-4
S=C(N1CCCCCC1)N1CC1
    -2	-0.6	0.2%	0.6	1	-24
Cc1ccc(O)c(CN2CCN(c3ccccc3)CC2)c1
    4	-3.2	-0.1%	1.4	-19	-43
COc1ccccc1N1C(=O)NC(=O)/C(=C/c2ccc([N+](=O)[O-])s2)C1=O
    -6	.	1.5%	1.4	?	.
COc1ccc(OC)c(C2=NOC(C(=O)N3CCC4(CC3)OCCO4)C2)c1 (stereo not given)
    23	-2.5	-2.2%[38.3 µM]	0.2	2	-7
COC(=O)C1=C(c2cccc(OC)c2OC)C[C@@H]2CC[C@H]1N2C(=O)NC(C)C
    -2	-1.4	0.4%	0.1	9	-5

Screening results as filed in PubChem.
